Vaccinia inh: blocks a specific stage of Vaccinia orthopoxvirus infection; AID 1053133; actives 0.01% (n = 89,000); Vaccinia-infected cells, mCherry/Venus stage reporter fluorescence; hits give low values; some inactives read as strong as hits; activity change (mCherry), % (no concentration beside the values);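 active = mCherry past -33% and 40 or more points under the early reporter, replicates agreeing; inconclusive = past -33% without that gap or agreement; tested in A549 cells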;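 also: scaled between vehicle wells and reference inhibitor wells; 23 nL library stock went into each well; one replicate is shown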
Vaccinia inh Venus: also measured in Vaccinia inh; calls as there; activity change (Venus), %; measured here: Venus reporter, other viral stage;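 negative = less Venus signal; first of two replicates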
Starred values were filed as active, the others as inactive; ? = inconclusive; nt = no result given.

SMILES	Vaccinia inh	Vaccinia inh Venus
CC(C)NC(=O)Nc1ccc2c(c1)C(=O)N([C@H](C)CO)C[C@@H](C)[C@@H](CN(C)C(=O)Cc1ccccc1)OCCCC[C@H](C)O2	20.8	2.2
COCC(=O)Nc1ccc2c(c1)C(=O)N(C)[C@@H]1CC[C@@H](CC(=O)NCC3CCCCC3)O[C@@H]1CO2	-5.3	-5.4
C[C@@H]1CN([C@@H](C)CO)C(=O)Cc2cc(NC(=O)C3CC3)ccc2O[C@@H]1CN(C)Cc1ccc(-c2ccccc2)cc1	?	nt
O=C(c1ccc(F)cc1)N1CC(=O)N2[C@H](CO)[C@H](c3ccc(C#CC4CCCC4)cc3)[C@@H]2C1	-16.6	-12.6
O=C(C[C@@H]1C=C[C@@H](NC(=O)c2cccnc2)[C@H](CO)O1)NCc1ccncn1	10.6	9.9
C[C@H]1CN([C@@H](C)CO)C(=O)c2cccc(NC(=O)c3ccc(-c4nccs4)cc3)c2O[C@H]1CN(C)C(=O)NC1CCCCC1	2.4	4.5
C[C@@H]1CN([C@H](C)CO)C(=O)c2cccc(NC(=O)c3nc4ccccc4s3)c2O[C@H]1CN(C)Cc1ccc(C(=O)Nc2ccccc2N)cc1	14.7	9.7
C[C@@H]1CCCCO[C@@H](CN(C)Cc2ccc(Cl)c(Cl)c2)[C@H](C)CN([C@H](C)CO)C(=O)c2cc(NC(=O)Nc3ccccc3)ccc2O1	-17.5	-13.2
C[C@H](CO)N1C[C@H](C)[C@@H](CN(C)C(=O)Nc2cc(F)ccc2F)Oc2cc(/C=C/c3ccccc3)ccc2S1(=O)=O	?	nt
O=S(=O)(N[C@H]1CC[C@@H](CCn2cc(-c3ccccn3)nn2)O[C@@H]1CO)c1cccc(F)c1	-1.0	-1.0
O=C1CNC[C@@H]2[C@H](c3ccc(C#Cc4cccnc4)cc3)[C@H](CO)N12	1.8	4.7
CN(C)CC#Cc1ccc([C@@H]2[C@@H](CO)N3CCCCN(C(=O)C4CC4)C[C@@H]23)cc1	14.1	-1.2
C[C@@H]1CN([C@@H](C)CO)C(=O)Cc2cc(NC(=O)Cn3cnnn3)ccc2O[C@H]1CN(C)S(=O)(=O)c1ccc(F)cc1	25.5	-3.3
COc1cccc(-c2cn(CC[C@@H]3CC[C@@H](NC(=O)CC4CC4)[C@@H](CO)O3)nn2)c1	-0.1	6.2
C[C@@H]1CCCCO[C@H](CN(C)C(=O)Cc2ccccc2)[C@@H](C)CN([C@@H](C)CO)C(=O)c2cc(NC(=O)CCCN(C)C)ccc2O1	14.6	5.0
CO[C@@H]1CN(C)C(=O)c2cc(NC(=O)Nc3cc(F)ccc3F)ccc2OC[C@H](C)N(C)C[C@H]1C	-31.5	-16.4
C/C=C/c1ccc([C@@H]2[C@@H](CO)N3C(=O)CN(Cc4ccc(C(=O)OC)cc4)C[C@@H]23)cc1	8.1	0.3
COc1ccc2c3c(n(C)c2c1)[C@@H](CO)N(C)CC31CCN(C(=O)C2CCC2)CC1	-3.6	-4.8
CNC[C@H]1Oc2c(NC(=O)Nc3c(C)noc3C)cccc2C(=O)N([C@H](C)CO)C[C@@H]1C	11.0	16.6
CO[C@@H]1CN(C)C(=O)c2cc(NC(C)=O)ccc2OC[C@H](C)N(S(C)(=O)=O)C[C@H]1C	9.1	8.0
COc1ccc(NC(=O)Nc2ccc3c(c2)C(=O)N([C@H](C)CO)C[C@H](C)[C@@H](CN(C)C)OCCCC[C@@H](C)O3)cc1	6.2	4.7
O=C(C1CCCC1)N1CCCCN2[C@@H](CO)[C@H](c3ccc(C#CC4CC4)cc3)[C@@H]2C1	-8.2	-13.1
COc1ccccc1C(=O)N1C[C@@H]2[C@H](c3ccccc31)[C@H](CO)N2C(=O)C1CCCC1	6.3	20.7
Cc1noc(C)c1S(=O)(=O)Nc1ccc2c(c1)CC(=O)N([C@@H](C)CO)C[C@@H](C)[C@@H](CN(C)Cc1ccncc1)O2	13.6	14.2
O=C(C1CCCC1)N1CC2(C1)[C@H](c1ccccc1)[C@H](CO)N2Cc1cncnc1	-1.6	-1.0

A portion from further up, for reference:
SMILES	Vaccinia inh	Vaccinia inh Venus
Cc1noc(C)c1S(=O)(=O)Nc1ccc2c(c1)CC(=O)N([C@@H](C)CO)C[C@@H](C)[C@@H](CN(C)Cc1ccncc1)O2	13.6	14.2
O=C(C1CCCC1)N1CC2(C1)[C@H](c1ccccc1)[C@H](CO)N2Cc1cncnc1	-1.6	-1.0

Next section:
SMILES	Vaccinia inh	Vaccinia inh Venus
C[C@@H]1CN([C@H](C)CO)C(=O)CCCn2nncc2CO[C@H]1CN(C)C(=O)CCC(F)(F)F	8.7	6.7
C[C@@H]1CN([C@@H](C)CO)C(=O)c2cc(NC(=O)Nc3ccc(F)cc3)ccc2O[C@H]1CN(C)C(=O)Nc1cccc2ccccc12	17.3	3.5
C[C@@H]1CN([C@H](C)CO)C(=O)Cc2cc(NC(=O)C3CC3)ccc2O[C@H]1CN(C)Cc1ccc(C(=O)Nc2ccccc2N)cc1	-2.3	-3.7
CO[C@@H]1CN(C)C(=O)c2cc(NS(C)(=O)=O)ccc2OC[C@@H](C)N(C(=O)c2ccc3c(c2)OCO3)C[C@@H]1C	26.8	16.6
COC(=O)C[C@@H]1C[C@@H]2c3cc(NC(=O)CN(C)C)ccc3O[C@@H]2[C@H](CO)O1	-16.2	-3.1
COC(=O)[C@H]1[C@H](CO)[C@H]2Cn3c(ccc(-c4cccc(F)c4)c3=O)[C@H]2N1C(C)=O	3.6	5.7
C[C@H]1CCCCO[C@@H](CN(C)C(=O)Cc2ccccc2)[C@@H](C)CN([C@@H](C)CO)C(=O)c2cc(NS(=O)(=O)c3cn(C)cn3)ccc2O1	27.1	13.5
CCC(=O)Nc1ccc2c(c1)C(=O)N(C)C[C@H](OC)[C@H](C)CN(C(C)=O)[C@H](C)CO2	10.5	8.8
C[C@H](CO)N1C[C@H](C)[C@H](CN(C)S(=O)(=O)c2ccccc2)Oc2ccc(NC(=O)Nc3ccc4c(c3)OCO4)cc2C1=O	-21.7	-15.3
COCC#Cc1ccc2c(c1)O[C@@H](CN(C)C(=O)NC(C)C)[C@H](C)CN([C@H](C)CO)S2(=O)=O	14.7	12.2
O=C(C1CC1)N1CC(=O)N2[C@H](CO)[C@@H](c3ccc(Br)cc3)[C@@H]2C1	-16.4	-6.6
CC(C)CC#Cc1ccc2c(c1)O[C@@H](CN(C)C(=O)Cc1ccccc1)[C@H](C)CN([C@H](C)CO)S2(=O)=O	-23.0	-15.0
CC(C)C#Cc1cnc2c(c1)C(=O)N([C@H](C)CO)C[C@@H](C)[C@H](CN(C)C(=O)CN1CCOCC1)O2	9.5	7.7
CO[C@H]1CN(C)C(=O)c2ccc(NS(=O)(=O)c3ccc(Cl)cc3)cc2OC[C@@H](C)N(C(=O)NC(C)C)C[C@@H]1C	-2.9	-3.9
Cc1ccc(S(=O)(=O)N(C)C[C@@H]2OCCCC[C@@H](C)Oc3ccc(NS(=O)(=O)c4cn(C)cn4)cc3C(=O)N([C@H](C)CO)C[C@H]2C)cc1	-6.6	-3.0
O=C(Nc1ccc(F)cc1)N1CC(=O)N2[C@@H](CO)[C@H](c3ccc(-c4ccccc4)cc3)[C@@H]2C1	?	nt
CN(C)C(=O)c1cccc(-c2ccc([C@@H]3[C@@H](C#N)N(C(=O)C4CC4)[C@H]3CO)cc2)c1	14.6	2.0
O=C(C[C@H]1CC[C@@H](NC(=O)Nc2ccccc2F)[C@H](CO)O1)NCc1ccc(F)cc1	13.6	12.5
CO[C@H]1CN(C)C(=O)c2cc(NS(=O)(=O)c3ccccc3)ccc2OC[C@@H](C)N(Cc2ccccn2)C[C@@H]1C	-2.0	0.7
C[C@H](CO)N1C[C@H](C)[C@H](CN(C)C(=O)Nc2cccc(F)c2)OCc2ccccc2-c2c(n(C)c3ccccc23)C1=O	?	nt
CCNC(=O)[C@@H]1[C@@H](CO)[C@@H]2Cn3c(ccc(-c4ccccc4F)c3=O)[C@H]1N2C(=O)CC	9.5	4.1
CCCC#Cc1ccc2c(c1)O[C@H](CN(C)C)[C@H](C)CN([C@H](C)CO)S2(=O)=O	-29.5	-16.6
CS(=O)(=O)N1[C@H](C(=O)NCCc2ccncc2)[C@@H](CO)[C@@H]2Cn3c(ccc(C4=CCCC4)c3=O)[C@@H]21	12.5	13.7
O=C(Nc1ccc2c(c1)OCO2)N[C@H]1CC[C@H](CCNC(=O)C2CCCC2)O[C@@H]1CO	1.3	6.2
Cc1ccc(S(=O)(=O)N(C)C[C@H]2Oc3ccc(NC(=O)C4CCCCC4)cc3C(=O)N([C@H](C)CO)C[C@H]2C)cc1	-24.3	-9.5
(listing goes on)
SMILES	Vaccinia inh	Vaccinia inh Venus
CC=Cc1ccc2n(c1=O)C[C@@H]1[C@@H](CO)[C@H](C(=O)NCC3CC3)N(Cc3nccs3)[C@H]21 (mixture of isomers)	1.5	12.0
COCC(=O)N(C)C[C@@H]1Oc2ncc(C#Cc3ccc(F)cc3)cc2C(=O)N([C@H](C)CO)C[C@@H]1C	16.7	0.7
C[C@@H]1CCCCO[C@@H](CN(C)C(=O)CCCN(C)C)[C@@H](C)CN([C@H](C)CO)C(=O)c2cc(NC(=O)Nc3ccc(F)cc3)ccc2O1	33.0	16.3
Cc1ccc(S(=O)(=O)N(C)C[C@@H]2Oc3ccc(NC(=O)Nc4ccc(F)cc4)cc3CC(=O)N([C@H](C)CO)C[C@@H]2C)cc1	?	nt
C[C@H](CO)N1C[C@H](C)[C@@H](CN(C)C)Oc2ccc(NC(=O)NC3CCCCC3)cc2C1=O	8.8	10.5
COc1ccc(C#Cc2ccc([C@@H]3[C@@H](CO)N4C(=O)CN(C(=O)c5ccccc5)C[C@@H]34)cc2)cc1	2.1	-8.6
CN1c2ccc(-c3ccc(F)cc3)cc2[C@@H]2[C@@H](CCN2S(=O)(=O)c2cccc(F)c2)[C@H]1CO	?	nt
CC(C)C#Cc1cnc2c(c1)C(=O)N([C@H](C)CO)C[C@@H](C)[C@@H](CN(C)C(=O)Nc1ccc(F)cc1)O2	13.4	-3.6
C[C@@H]1CCCCO[C@@H](CN(C)C(=O)Nc2ccc3c(c2)OCO3)[C@@H](C)CN([C@@H](C)CO)C(=O)c2cc(NC(=O)Nc3ccc4c(c3)OCO4)ccc2O1	-4.6	-4.0
O=C(C[C@@H]1CC[C@@H](NC(=O)C2CCOCC2)[C@@H](CO)O1)NCc1ccncc1	9.3	1.6
C[C@H](CO)N1C[C@H](C)[C@@H](CN(C)Cc2ccc3c(c2)OCO3)OCc2cn(nn2)CCCC1=O	3.5	2.8
Cc1ccc(-c2ccc([C@H]3[C@H](CO)N4C(=O)CN(C(=O)c5ccccc5)C[C@@H]34)cc2)cc1	7.0	-0.1
C[C@@H]1CN([C@H](C)CO)C(=O)c2cccc(NC(=O)Nc3cccc4ccccc34)c2O[C@@H]1CN(C)C(=O)NC1CCCCC1	?	nt
CNC(=O)C[C@H]1CC[C@@H]2[C@@H](COc3ccc(NC(=O)Nc4ccc(F)cc4)cc3C(=O)N2C)O1	13.0	13.5
COc1cccc(C(=O)N2C[C@@H]3[C@H](c4ccccc42)[C@H](CO)N3Cc2ccccc2F)c1	-7.0	-6.9
N#C[C@H]1[C@@H](c2ccccc2)[C@@H](CO)N1C(=O)Cc1ccccn1	4.6	8.3
CN(C)C(=O)C[C@@H]1C=C[C@H](NC(=O)C2CC2)[C@H](CO)O1	16.3	11.8
Cc1noc(C)c1NC(=O)Nc1ccc2c(c1)C(=O)N([C@H](C)CO)C[C@@H](C)[C@@H](CN(C)C(=O)NC1CCCCC1)OCCCC[C@H](C)O2	0.9	0.1
O=C(NC1CCC1)[C@@H]1[C@@H](CO)[C@@H]2Cn3c(cccc3=O)[C@@H]2N1CC1CCOCC1	11.3	8.9
COCC(=O)N1[C@@H](CO)[C@@H]2c3ccccc3N(C(=O)Nc3ccccc3F)C[C@@H]21	4.5	3.2
C[C@H](CO)N1C[C@H](C)[C@H](CN(C)C(=O)NC2CCCC2)Oc2cc(C#Cc3ccc(F)cc3)ccc2S1(=O)=O	?	nt
CCC(=O)N1CC2(C1)[C@@H](c1ccc(-c3ccc(C)cc3)cc1)[C@H](CO)N2S(=O)(=O)CC	1.8	0.1
COCC(=O)Nc1ccc2c(c1)OC[C@@H](C)N(CCc1ccccc1)C[C@H](C)[C@H](OC)CN(C)C2=O	7.4	-0.4
CC=Cc1ccc2n(c1=O)C[C@H]1[C@H](CO)[C@@H](C(=O)NCCC)[C@@H]2N1Cc1cccnc1 (mixture of isomers)	6.9	8.4
O=C1CCCc2cnnn2COC[C@H](Cc2ccccc2)N1	20.2	9.3
COCC(=O)N(C)C[C@H]1Oc2ncc(-c3ccccc3F)cc2C(=O)N([C@@H](C)CO)C[C@H]1C	6.2	2.1
C[C@@H]1CN([C@@H](C)CO)C(=O)c2cc(N(C)C)ccc2O[C@@H](C)CCCCO[C@H]1CN(C)Cc1ccc2c(c1)OCO2	9.4	-6.7
Cc1cccc(NC(=O)Nc2ccc3c(c2)C(=O)N(C)[C@@H]2CC[C@@H](CC(=O)O)O[C@H]2CO3)c1	3.8	3.7
CCCC(=O)Nc1ccc2c(c1)OC[C@H](C)N(Cc1ccncc1)C[C@@H](C)[C@@H](OC)CN(C)C2=O	10.8	15.4

In the list so far, six have an aryl methoxy group:
SMILES	Vaccinia inh	Vaccinia inh Venus
COc1cccc(-c2cn(CC[C@@H]3CC[C@@H](NC(=O)CC4CC4)[C@@H](CO)O3)nn2)c1	-0.1	6.2
COc1ccc2c3c(n(C)c2c1)[C@@H](CO)N(C)CC31CCN(C(=O)C2CCC2)CC1	-3.6	-4.8
COc1ccc(NC(=O)Nc2ccc3c(c2)C(=O)N([C@H](C)CO)C[C@H](C)[C@@H](CN(C)C)OCCCC[C@@H](C)O3)cc1	6.2	4.7
COc1ccccc1C(=O)N1C[C@@H]2[C@H](c3ccccc31)[C@H](CO)N2C(=O)C1CCCC1	6.3	20.7
COc1ccc(C#Cc2ccc([C@@H]3[C@@H](CO)N4C(=O)CN(C(=O)c5ccccc5)C[C@@H]34)cc2)cc1	2.1	-8.6
COc1cccc(C(=O)N2C[C@@H]3[C@H](c4ccccc42)[C@H](CO)N3Cc2ccccc2F)c1	-7.0	-6.9

Only part of the results is shown (hit frequency here may not be typical).
